2A StopGo: lowers the luciferase signal of an FMDV 2A StopGo reporter; 410,000 compounds, 1.2% hits; human cells with a luciferase reporter of 2A StopGo recoding; control for the full effect not named in the record; Potency, µM (highest dose often 57.9 µM), for the others: top-dose signal change, negative = less light; AID 1159524; active = well fitted falling curve with a large enough effect; inconclusive = small, poorly fitted or top-dose-only effect; inactive = no such curve, though single readings can be large or run the other way; tested in HEK293T cells; further: on the % scale 0 is the no-effect control and ±100 the full control effect; nearly all actives have a fitted effect of over 45% in size; luciferase light after 4 h
SARS PLpro yeast: blocks SARS-CoV papain-like protease in a yeast assay. S. cerevisiae expressing SARS-CoV PLpro, growth rescue; control for the full effect not named in the record. Potency, µM (titrated, usually from 32.9 µM), for the others: top-dose activity, positive = growth rescue. 330,000 compounds, 0.19% hits. AID 485353; active means well fitted rising curve with a large enough effect; inconclusive means small, poorly fitted or top-dose-only effect; inactive means no such curve, though single readings can be large or run the other way; further: 0% is about no effect; nearly all actives have a fitted effect of over 55% in size; growth read by luminescence after 48 h
RE007 growth inh: less growth of the S. pombe RE007 Vpr strain | S. pombe RE007 Vpr strain, BacTiter-Glo ATP luminescence, 24 h; control for the full effect not named in the record | Potency, µM (series often up to 92.2 µM), for inactives: at the top dose activity change, negative = less growth | 360,000 compounds, 0.21% hits | AID 651644; active = well fitted falling curve with a large enough effect; inconclusive = small, poorly fitted or top-dose-only effect; inactive = no such curve, though single readings can be large or run the other way;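 further: on the % scale 0 is the no-effect control and ±100 the full control effect; nearly all actives have a fitted effect of over 50% in size; the assay follows cell death caused by Vpr and the record does not say whether a fall means rescue or toxicity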
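Fission yeast RE007 carrying one integrated HIV-1 vpr copy, seeded at OD 0.01 in PMG+AL medium with 23 nL pinned compound. Grown 24 h at 30 degrees; viability read by BacTiter-Glo luminescence after 5 min.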
Cruzain noTriton: blocks cruzain activity in detergent-free assay. P25779. 200,000 compounds, 2.3% hits. Potency, µM, for inactives: max response, negative = inhibition, actives largely listed as inhibitors. purified cruzain, Z-FR-AMC fluorescence, no detergent;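 further: plate controls were enzyme without inhibitor for no effect and buffer without enzyme for full effect; nearly all actives have a fitted effect of over 40% in size; top concentration of the series not given in the record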
Target sequence (P25779 123-467 limits assumed): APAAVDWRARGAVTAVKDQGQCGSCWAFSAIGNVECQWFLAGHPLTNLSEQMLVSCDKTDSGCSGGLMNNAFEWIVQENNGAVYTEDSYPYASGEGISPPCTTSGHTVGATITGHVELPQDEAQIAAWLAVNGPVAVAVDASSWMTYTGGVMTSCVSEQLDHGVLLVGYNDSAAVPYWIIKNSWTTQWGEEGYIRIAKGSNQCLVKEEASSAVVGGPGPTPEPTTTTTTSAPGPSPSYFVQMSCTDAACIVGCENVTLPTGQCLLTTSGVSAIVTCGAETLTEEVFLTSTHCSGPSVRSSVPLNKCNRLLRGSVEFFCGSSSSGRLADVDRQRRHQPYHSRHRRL
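Detergent-free condition (0.00005% Triton X-100) in acetate buffer pH 5.5 with DTT. 1.5 nM enzyme and compound were pre-mixed 15 min, then 2 uM Z-FR-AMC substrate added; reaction progress from fluorescence change between first and third reads (60 s).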
Cruzain Triton: blocks cruzain activity in presence of Triton detergent; Potency, µM, for the others: max response, negative = inhibition, usual class: inhibitors; 200,000 compounds, 0.43% hits; P25779; purified cruzain, Z-FR-AMC fluorescence, 0.01% Triton;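 further: plate controls were neutral wells for no effect and buffer without enzyme for full effect; nearly all actives have a fitted effect of over 40% in size; top concentration of the series not given in the record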
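Cysteine protease activity tested under reducing, mildly acidic conditions (100 mM sodium acetate pH 5.5, 5 mM DTT) plus 0.01% Triton X-100. Cruzain 1.5 nM; substrate Z-FR-AMC 2 uM; 15 min compound preincubation at room temperature.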
Marburg entry inh: inhibitors of Marburg virus binding or cell entry; Marburg virus pseudotyped entry inhibition, cell reporter; control for the full effect not named in the record; about a third of the inactives were read at about 46 µM; Potency, µM (highest dose often 37.8 µM), without a hit: at the top dose activity change, negative = inhibition, usual class: inhibitors; 300,000 compounds, 1.8% hits; AID 540276; active = well fitted inhibition curve with a large enough effect; inconclusive = small, poorly fitted or top-dose-only effect, or effect the other way; inactive = flat fitted curve, though single readings scatter; tested in HEK293 cells; about a fifth of its hits are not listed in these tables; further: on the % scale 0 is the no-effect control and ±100 the full control effect; luciferase read-out
NS1 function inh: blocks influenza NS1 protein function; S. cerevisiae slowed by influenza A NS1, growth recovery by OD600; Potency, µM (titrated, usually from 46.1 µM), for the others: at the highest dose activity, positive = more growth; 270,000 compounds, 0.4% hits; AID 2326; active means well fitted rising curve with a large enough effect; inconclusive means small, poorly fitted or top-dose-only effect; inactive means no such curve, though single readings can be large or run the other way; further: nearly all actives have a fitted effect of over 50% in size
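OD600 was taken as the measure of yeast growth restored by compound in an NS1-expressing S. cerevisiae strain. Cells had been washed out of glucose medium and diluted 1:100 into galactose -URA medium, pH 6.0.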
Lassa entry inh: blocks Lassa virus binding to or entry into cells; Lassa virus pseudotype entry inhibition, cell reporter; control for the full effect not named in the record; Potency, µM (highest dose often 37.9 µM), for inactives: at the highest dose activity change, negative = inhibition, most hits filed as inhibitors; 300,000 compounds, 1.2% hits; AID 540256; active means well fitted inhibition curve with a large enough effect; inconclusive means small, poorly fitted or top-dose-only effect, or effect the other way; inactive means flat fitted curve, though single readings scatter; tested in HEK293 cells; further: on the % scale 0 is the no-effect control and ±100 the full control effect; nearly all actives have a fitted effect of over 50% in size; luciferase read-out
* = called active by the depositor; ? = inconclusive; / = not tested or not shown; [ ] = another dose, or the depositor's remark. Unless noted, the call rests on the fitted dose curve; in most records, active means well fitted curve in the direction sought with a large enough effect; inconclusive means small, poorly fitted or top-dose-only effect, or another doubt; inactive means no such curve, though single readings can be large; an effect the other way counts as inactive or inconclusive. Potency means the concentration at half of the fitted maximal effect.

SMILES	2A StopGo	SARS PLpro yeast	RE007 growth inh	Cruzain noTriton	Cruzain Triton	Marburg entry inh	NS1 function inh	Lassa entry inh
CCOC(=O)c1ccc(NC(=S)N(CCCN2CCCC2)Cc2ccco2)cc1	8%	-2%	10%	3%	-1.9%	?	-1%	0%
O=C(COc1ccc([N+](=O)[O-])cc1)Nc1ccc(NC(=O)c2ccccc2)cc1	4%	-3%	17%	/	/	-1%	8%	3%
Cc1ccc(S(=O)(=O)n2nc(-c3ccco3)nc2NCc2ccccc2Cl)cc1	72%[activator]	/	/	?	-5.1%	3%[46.1 µM]	/	12%[46.1 µM]
CCc1cc(SC#N)ccc1N	-2%	-8%	-18%	/	/	14%[46.1 µM]	/	/
O=C(NCc1cccnc1)c1cc2nc(-c3cccs3)cc(C(F)(F)Cl)n2n1	17%	2%	3%	/	/	9%[46.1 µM]	/	?
COc1ccccc1NC(=O)C1Cc2ccccc2CN1C(=O)c1ccco1 (stereo not given)	8%	-8%	-10%	/	/	?	11%	0%[46.1 µM]
COC(=O)c1ccccc1NC(=O)CCC(=O)N1CCOc2ccccc21	-8%	/	/	12%	-1.7%	-14%[46.1 µM]	/	-6%[46.1 µM]
CC/C(Cc1ccccc1)=N/NC(=O)c1cccc(Br)c1	-11%	-18%	-3%	-3%	0.4%	-13%	1%	5%
COc1cc(/C=N/n2c(-c3cc(C)[nH]n3)n[nH]c2=S)cc(OC)c1OC	-9%	0%	2%	/	/	18%[46.1 µM]	9%	3%
Cc1ccc(C(C)C)c(OCC(=O)Nc2cccc(-c3nc4ncccc4o3)c2)c1	?	/	/	?	-7.1%	/	/	0%[46.1 µM]
COc1ccc(CN(C(=O)c2ccco2)c2ccccc2)cc1	-30%	29%	36%	-16%	-3.7%	-7%	-2%	3%
Cc1ccc(N2CC(C(=O)NCCc3ccc(S(N)(=O)=O)cc3)CC2=O)cc1 (stereo not given)	/	3%	14%	-24%	-0.3%	-17%	12%	1%
CCOCCCn1c(=S)[nH]c2cc(C(=O)NCc3ccc(F)cc3)ccc2c1=O	-17%	-1%	-3%	/	/	/	3%	/
CCOC(=O)c1ccc(NC(=O)CC2C(=O)N(c3ccc(F)cc3)C(=O)N2Cc2ccc(C)cc2)cc1 (stereo not given)	-9%	/	/	16%	-7.4%	?	/	-11%[46.1 µM]
O=C1[C@@H]2C(Cc3ccc(O)cc3)NC3(C(=O)Nc4ccc(F)cc43)[C@@H]2C(=O)N1c1ccccc1 (stereo not given in full)	-28%	-2%	2%	-5%	-5.5%	-8%	-30%	?
COc1ccc(N2CCN(C3CCCCC3NS(=O)(=O)c3ccccc3)CC2)cc1 (stereo not given)	-17%	-3%	-9%	/	/	?	-2%	?
CCC(C)N(C(=O)COC(=O)c1cc([N+](=O)[O-])ccc1N)C1CCS(=O)(=O)C1 (stereo not given)	-16%	5%	6%	/	/	-2%	-6%	1%
O=C(CCCN1C(=O)C2CC=CCC2C1=O)Nc1cccc(F)c1 (stereo not given)	10%	5%	-3%	/	/	3%	3%	-5%
O=C1CSCC(=O)N1c1ccccc1	-8%	5%	0%	-6%	4.4%	-2%	-8%	10%
CSCC(=O)N1CCC(n2nccc2NC(=O)CCCc2ccccc2)CC1	25%	-2%	-14%	/	/	25%	0%	17%
CCCC(=O)Nc1ccc(N2CCN(C(=O)c3ccccc3C)CC2)cc1	-22%	-3%	-2%	-9%	3.2%	27%	-54%	-20%
COc1ccc(NC(=O)CC(C)S(=O)(=O)c2ccc3c(c2)NC(=O)CO3)cc1OC (stereo not given)	-16%	/	/	1%	1.3%	/	/	4%[46.1 µM]
O=C(CN1C(=O)COc2ccccc21)Nc1ccc2c(c1)OCCO2	32%[activator]	-1%	-11%	-24%	-4.0%	18%	7%	-32%[14.3 µM]
C=CCN(c1ccccc1)S(=O)(=O)c1ccc2c(c1)NC(=O)C(C)C(=O)N2 (stereo not given)	-30%	0%	9%	/	/	/	-5%	/
O=C(Cc1ccccc1[N+](=O)[O-])NCc1ccccc1Cl	50%[activator]	1%	-14%	-10%	3.8%	?	9%	2%
CCCCN(CC)C(=O)C1CCCN(S(=O)(=O)c2cccc3nsnc23)C1 (stereo not given)	-19%	0%	9%	/	/	-21%[46.1 µM]	8%	0%[46.1 µM]
Cc1cccnc1NC(=O)c1cc2c(=O)oc3ccccc3c2s1	3%	7%	13%	-6%	-2.6%	3%	-4%	-3%
Cc1nn(C(=O)c2ccco2)c(C)c1Sc1ccc(Br)cc1	3%	4%	-12%	-3%	-1.1%	24%	-6%	22%
C/C(=N\NC(=O)C(c1ccccc1)c1ccccc1)c1ccc(O)cc1	-23%	-2%	11%	/	/	/	30%	/
CCOC(=O)c1[nH]c2ccc(OC)cc2c1NC(=O)NC(C)C	-14%	4%	15%	3%	4.0%	-2%	2%	7%
COc1ccc(S(=O)(=O)N2CCC(C(=O)Nc3ccc(OC)c(OC)c3)CC2)cc1C	-4%	/	21%	/	/	-1%	-7%	12%
O=C(Nc1ccc(Cc2ccncc2)cc1)c1cccs1	-29%	-2%	-4%	/	/	?	/	-18%[46.1 µM]
Cc1nnc(SCc2ccccc2)n1N	-11%	0%	1%	-10%	8.8%	0%	8%	16%
Cc1ccc(C)c(N2CCN(S(=O)(=O)c3ccc4c(c3)CCC(=O)N4)CC2)c1	/	-5%	/	?	-8.6%	/	-43%	/
CCOCCCN(CC(=O)NC1CCCC1)C(=O)C(=O)Nc1ccc2c(c1)OCCO2	7%	23%	-6%	/	/	9%[46.1 µM]	21%	15%
CC(C)(C)C(=O)COC(=O)c1cccc(NC(=O)c2ccco2)c1	31%[activator]	-14%	16%	-5%	3.8%	11%	-36%	-2%
Cc1n[nH]c(C)c1S(=O)(=O)N1CCc2ccccc2C1	9%	12%	-5%	/	/	/	3%	/
CC(=O)c1c(C)n(-c2cccc(C)c2)c2ccc(OC(=O)COc3ccccc3)cc12	0%	/	/	?	-3.9%	-17%[46.1 µM]	/	-13%[46.1 µM]
Cc1cccnc1NC(=O)c1ccc(C(=O)c2ccccc2)cc1	18%	/	24%	/	/	-3%	/	5%
Cc1cc(C)n2nc(SCC(=O)N(C)C)nc2n1	4%	0%	11%	-10%	-1.2%	4%[46.1 µM]	5%	-8%
O=C(COC(=O)C1CC1)Nc1ccccc1Sc1ccccc1	-20%	20%	-14%	-3%	-1.4%	2%	-6%	1%
CCCCOc1ccc(-c2ncc(N)cn2)cc1	22%	-5%	-3%	/	/	/	-1%	/
O=C(NCc1cccc(C(F)(F)F)c1)C1CCCN(c2ncccn2)C1 (stereo not given)	-19%	-1%	-11%	12%	2.1%	0%	-34%	0%
CN(C)c1ccc(S(=O)(=O)N2CCCCC2)cc1NC(=O)COc1ccccc1F	73%[activator]	-8%	9%	/	/	/	?	/
C=CCn1c(CCCOc2ccc(Cl)cc2Cl)nnc1SCC(=O)Nc1nccs1	-23%	-7%	9%	?	-2.2%	5%	3%	6%
Cc1ccccc1C(=O)Nc1ccc2nc(SCC(=O)N(C)c3ccccc3)sc2c1	-43%	/	/	?	-5.7%	5%[46.1 µM]	/	?
CSCc1c(C(=O)Nc2ccc3c(c2)OCO3)oc2ccccc12	16%	-4%	8%	/	/	-1%[46.1 µM]	-8%	-19%[46.1 µM]
COc1ccc(C2N(c3ccc(OC)cc3)C(=S)N3CCCN23)cc1 (stereo not given)	4%	-12%	-9%	2%	-2.3%	2%	-17%	1%
O=C(Cc1ccc([N+](=O)[O-])cc1)N/N=C/c1cccs1	-15%	-3%	-4%	/	/	/	0%	/
COc1ccc(NC(=S)NC(NC(=O)c2cccc(Cl)c2)C(Cl)(Cl)Cl)c([N+](=O)[O-])c1 (stereo not given)	-24%	-22%	-8%	?	-9.5%	-8%	7%	?
O=C(c1ccccc1)C(Cn1cncn1)C(Sc1ccccc1)c1ccccc1 (stereo not given)	-19%	-13%	14%	3%	-2.2%	?	8%	22µM*
CCOc1ccc2[nH]c(=O)c(CN(CCO)C(=O)CC)cc2c1	-7%	2%	-3%	3%	-2.2%	22%	-8%	0%
CCCCCCn1c(COc2ccccc2F)nnc1SCC(=O)N1c2ccccc2NC(=O)C1(C)C	?	9%	12%	29%	-8.0%	?	?	?
N#CCCN(C(=O)c1ccc2c(=O)n3c(nc2c1)CCCCC3)c1ccccc1	4%	-2%	11%	/	/	-6%[46.1 µM]	-2%	-2%[46.1 µM]
COc1cccc(CNC(=O)N2CCN(c3ccccc3Cl)CC2)c1	6%	-2%	5%	/	/	5%[46.1 µM]	-22%	-2%[46.1 µM]
Cc1sc2ncn(CC(=O)NCCCC(=O)NCc3ccc(F)cc3)c(=O)c2c1C	-20%	-7%	3%	/	/	6%[46.1 µM]	-7%	12%[46.1 µM]
Cc1ccc(-c2nnc(SCCOc3ccccc3)o2)cc1	7%	/	/	-5%	1.1%	4%[46.1 µM]	/	18%[46.1 µM]
Cc1cc[n+](-c2[nH]c(=O)sc2/C=N/N=C(\[O-])c2ccccc2)cc1C	-3%	3%	-12%	/	/	3%[46.1 µM]	/	10%
CCC(C)NC(=O)c1ccc([N+](=O)[O-])c(Cl)c1 (stereo not given)	0%	-15%	6%	-5%	-1.2%	9%	-2%	20%
CCN(Cc1ccccc1)C(=O)c1cc2c(s1)-c1c(C)cccc1OC2	7%	/	/	?	?	8%[46.1 µM]	/	/

The listing continues:
SMILES	2A StopGo	SARS PLpro yeast	RE007 growth inh	Cruzain noTriton	Cruzain Triton	Marburg entry inh	NS1 function inh	Lassa entry inh
Cc1nnc2c(Nc3cccc(O)c3)nc3ccccc3n12	-6%	/	/	0%	-4.6%	-24%[46.1 µM]	/	4%[46.1 µM]
O=C(N/C(=C\c1ccc(F)cc1)C(=O)N1CCCCCC1)c1ccccc1	12%	-3%	-5%	/	/	0%	/	28%
O=C(Nc1ccc2nc(SCC(=O)N3CCCC3)sc2c1)c1cccc(Cl)c1	-20%	/	/	?	-9.0%	?	/	?
COc1ccccc1NC(=O)c1cnc(SCC(=O)NCCc2ccccc2)n(C)c1=O	-18%	-4%	-4%	/	/	-6%	/	-24%
CCc1ccccc1NC(=O)CCc1nc(-c2ccc(C)cc2)no1	-25%	6%	-5%	-18%	1.3%	-18%	-4%	3%
